Source: PubChem BioAssay
rRNA inh HTS: inhibitors of bacterial rRNA selective over humanized ribosomes | GFP signal change (wild-type ribosome), % (concentration not given with the values) | E. coli WT GFP vs humanized-ribosome RFP mutants, fluorescence, 24 h; hits give low values; DMSO median 0, no signal -100 | 1.6% of 350,000 active | AID 720706;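 active = significant combined selectivity score with lowered wild-type GFP, culture density cut under 30%, mutant RFP and density less affected; inactive = any of these conditions unmet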; also: one replicate is shown; some compounds called inactive have numbers as strong as hits
Calb FLC: affects C. albicans growth with fluconazole; C. albicans CaCi-2 (fluconazole-resistant clinical isolate) + fluconazole, Alamar Blue growth, 48 h; growth inhibition, % (no concentration beside the values); 0.57% of 300,000 active;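 active = most replicates above 75%; inconclusive = exactly half above 75%; inactive = most below 75%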;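 also: all wells also contain fluconazole at 8 µg/ml as a sub-toxic cotreatment; 0% = median of DMSO wells and 100% = median of geldanamycin control wells; wells of about 8 µL received 7.5 nL stock; the first replicate is given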
A1 inh: inhibitors of the anti-apoptotic protein A1, read as caspase activation | MEF A1-2A-BIM cells, Caspase-Glo 3/7 luminescence, 3 h; percent of clofoctol response, vehicle zero | caspase activation, % (test concentration not listed) | 0.066% of 330,000 active | AID 2462;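 active = over half of replicate activation scores above 10%, or exactly half above 10 with the replicate mean above 10; inconclusive = replicate mean below 10 yet half the replicates above 10; inactive = over half of replicates below 10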;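 also: wells of about 30 µL received 50 nL stock; many hits fall short of the cut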
ALR inh: human ALR oxidase inhibition via reduced H2O2; inhibition, % (concentration not given with the values); purified ALR, DTT oxidation, H2O2 HRP-luminol luminescence; 3.8% of 290,000 active; P55789;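 active = mean and each replicate at 75% or more; inconclusive = only one of the two met; inactive = neither met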;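 also: stock transfer was 7.5 nL into about 7.5 µL; 0% = neutral wells and 100% = wells with inactivated enzyme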
LANA-H2B inh: blocks KSHV LANA binding to histone H2A/H2B | Q9QR71 | inhibition, % (no concentration beside the values) | cell-free LANA-H2A/H2B peptide, fluorescence polarization | 0.6% of 320,000 active; in the data active = inhibition mostly above about 10%, no sharp cut-off; inactive = mostly below about 6.7%;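 also: stock transfer was 7.5 nL into about 10 µL; 0% = median of vehicle wells and 100% = median of positive control wells; one replicate is shown; the record names a cut of 25% in any replicate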
Target sequence (Q9QR71 whole entry, looked up): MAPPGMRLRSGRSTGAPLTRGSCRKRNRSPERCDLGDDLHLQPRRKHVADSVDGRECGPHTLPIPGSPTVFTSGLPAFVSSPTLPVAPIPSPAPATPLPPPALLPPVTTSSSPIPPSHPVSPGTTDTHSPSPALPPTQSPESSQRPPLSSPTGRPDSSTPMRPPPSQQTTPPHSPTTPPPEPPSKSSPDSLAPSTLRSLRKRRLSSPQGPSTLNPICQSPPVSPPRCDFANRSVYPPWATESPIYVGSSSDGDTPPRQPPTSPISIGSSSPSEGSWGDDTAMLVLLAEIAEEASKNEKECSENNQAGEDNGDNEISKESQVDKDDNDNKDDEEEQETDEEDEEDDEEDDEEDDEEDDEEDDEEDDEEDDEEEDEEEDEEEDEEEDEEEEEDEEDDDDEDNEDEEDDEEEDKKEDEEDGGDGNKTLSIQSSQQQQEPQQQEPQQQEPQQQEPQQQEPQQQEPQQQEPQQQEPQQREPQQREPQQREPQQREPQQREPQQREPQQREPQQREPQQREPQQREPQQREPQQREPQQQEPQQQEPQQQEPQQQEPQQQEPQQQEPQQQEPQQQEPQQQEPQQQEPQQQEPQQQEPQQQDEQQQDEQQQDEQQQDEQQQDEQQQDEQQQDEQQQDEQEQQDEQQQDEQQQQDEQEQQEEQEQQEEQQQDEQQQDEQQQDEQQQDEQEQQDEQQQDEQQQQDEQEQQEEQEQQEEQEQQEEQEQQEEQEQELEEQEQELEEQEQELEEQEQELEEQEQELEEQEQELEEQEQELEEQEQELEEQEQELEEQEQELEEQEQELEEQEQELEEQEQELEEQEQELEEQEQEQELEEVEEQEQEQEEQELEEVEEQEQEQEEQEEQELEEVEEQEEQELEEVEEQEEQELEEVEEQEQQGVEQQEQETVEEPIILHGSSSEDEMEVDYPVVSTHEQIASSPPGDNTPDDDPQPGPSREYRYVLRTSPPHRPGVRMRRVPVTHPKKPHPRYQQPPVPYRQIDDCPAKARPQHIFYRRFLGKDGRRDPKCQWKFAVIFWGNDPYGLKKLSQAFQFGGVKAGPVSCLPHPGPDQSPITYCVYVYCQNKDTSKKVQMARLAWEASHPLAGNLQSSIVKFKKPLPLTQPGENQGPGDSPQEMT
B2AR ag: activates human beta-2 adrenergic receptor causing internalization. 0.43% of 340,000 active. AID 504454. response, % (no concentration beside the values). Am2.2-beta2AR cells, FAP receptor internalization, flow cytometry; reference of the scale not given here;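 active = response above a set limit, near 3 SD of response in nonfluorescent compounds, cut at about 42% in these data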;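 also: stock transfer was 100 nL into about 11 µL; a reference agonist was the positive control; negative values mostly stem from fluorescent compounds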
T cruzi inh: blocks replication of Trypanosoma cruzi | T. cruzi beta-gal in NIH3T3, luminescence, 90 h | inhibition, % (no concentration beside the values) | 1.4% of 300,000 active | AID 1885;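 active = mean inhibition across valid replicates above about 55%, limit read from the data; inconclusive = mean below that limit but half or more replicates reach it; inactive = mean below it, under half of replicates reach it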;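 also: signal also drops with host cell toxicity which is not excluded here; 0% = plate median of DMSO wells and 100% = zero luminescence signal; higher percent means less beta-gal luminescence so fewer parasites; stock transfer was 50 nL into about 50 µL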
Beta apoptosis: beta cell apoptosis inhibition | INS-1E cytokine-induced death, ATP luminescence, 48 h; percent of positive-control rescue, neutral wells zero | protection from apoptosis, % (no concentration beside the values) | 0.8% of 300,000 active;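 active = all replicates at 75% or more, or half of them and the mean; inconclusive = half reach 75% but not the mean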;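 also: 0% = cytokine-treated negative control wells and 100% = positive control rescue; higher means more ATP so stronger rescue from cytokine killing; wells of about 40 µL received 100 nL stock; the first replicate is given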
rRNA inh HTS OD600: further read-out of rRNA inh HTS, marked with its call; OD600 change, %; measured here: OD600 growth;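 optical density of the mix in the first replicate; 0 = DMSO median and -100 = no signal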
rRNA inh HTS RFP: recorded beside rRNA inh HTS, whose call it bears; RFP signal change, %; measured here: RFP humanized mutant strains;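 first replicate; 0 = DMSO median and -100 = no signal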
An asterisk follows results filed as active; ? = inconclusive; / = not tested or not shown.

canonical_smiles	Calb FLC	rRNA inh HTS OD600	A1 inh	ALR inh	T cruzi inh	LANA-H2B inh	rRNA inh HTS RFP	rRNA inh HTS	Beta apoptosis	B2AR ag
O=C(Cc1ccc(F)cc1)N/N=C/c1ccc(-c2ccc(Cl)c(C(=O)O)c2)o1	-7	17	0.3	0	-12	0.1	-1.2	21	-4	-3
CC(=O)NCCSc1ccc(S(=O)(=O)N2CCCC2)cn1	/	/	0.4	0	/	-2.9	/	/	-5	-4
COc1ccc(NC(=O)CN(c2ccccc2C)S(C)(=O)=O)c(OC)c1	10	3	0.7	/	8	4.5	1.5	7	-7	0
NC(=O)c1cc([N+](=O)[O-])ccc1NCc1ccc(F)cc1	/	16	-0.9	-9	/	0.0	-1.9	15	4	1
O=S(=O)(c1ccc(Br)cc1)c1nc(-c2ccccc2)oc1N1CCOCC1	3	7	1.0	4	16	0.3	-3.2	2	-17	-28
COc1ccc(CNc2cccc3[nH]c(C(F)(F)F)nc23)cc1OC	5	-2	-0.9	0	-7	-1.6	-4.0	1	1	2
CN(C)c1ccc(C=NCC2COc3ccccc3O2)cc1 (stereo not drawn)	15	10	0.1	-5	3	1.4	1.9	4	-6	-1
Cc1ccc(NC(=O)N2C(=O)C3(OCCO3)c3ccccc32)cc1	-2	/	0.1	-2	-2	4.4	/	/	-12	0
O=C(O)COc1ccc(=O)n(-c2ccccc2)n1	1	/	0.4	1	-14	2.2	/	/	-4	-2
O=C(NCCSc1ncc(-c2ccccc2)[nH]1)c1ccco1	-9	-1	0.6	5	-4	0.6	2.1	2	/	-3
COc1ccc(S(=O)(=O)N2CCN(C(=O)COc3ccc(C)c(C)c3)CC2)cc1OC	0	1	2.3	-8	22	1.7	2.8	0	-6	-3
CC1=NN(c2ccccc2)C(=O)C1(C)[N+](=O)[O-] (stereo not drawn)	-1	/	-1.8	0	-10	-1.4	/	/	3	-4
Cc1cccc2sc(N(CCCN3CCOCC3)C(=O)CS(=O)(=O)c3ccc(F)cc3)nc12	1	-1	0.4	-8	22	-2.4	-2.2	2	-6	10
COc1ccccc1NC(=O)Nc1ccc(Cl)c(S(=O)(=O)Nc2ccccc2OC)c1	35	/	1.0	-2	22	1.3	/	/	3	6
CC(C)(C)C1CCC(C(=O)OCC(=O)Nc2ccc3[nH]c(=O)[nH]c3c2)CC1 (stereo not drawn)	8	0	-1.3	-5	-23	-5.7	1.0	-9	-6	3
COc1ccc(NC(=O)C(CC(C)C)NC(=O)C2CCCCC2)c(OC)c1 (stereo not drawn)	-10	-2	?	-14	20	-1.4	-0.5	0	-5	2
CCOC(=O)N1CCN(C(=O)C2CCCN(S(=O)(=O)c3ccc(C)cc3)C2)CC1 (stereo not drawn)	10	-8	0.3	-8	-7	-4.5	-4.0	-7	-3	-2
O=C(/C=C/c1ccccc1)Nc1nnc(SCC(=O)c2ccc3ccccc3c2)s1	/	/	0.5	-2	/	2.2	/	/	-3	-7
Cc1ccccc1NC(=O)COc1ccc2oc(=O)cc(C)c2c1	-12	7	0.6	-7	-31	-0.4	-0.7	11	1	1
CCC(=O)N(C(=O)CC)N1CCN(c2ccncc2S(=O)(=O)N2CCCCC2)CC1	-1	-1	-0.6	-1	17	-3.8	2.5	0	4	10
COCC(=O)Nc1nnc(-c2ccc(C(C)(C)C)cc2)s1	13	-22	-0.9	7	4	5.2	-13	-13	1	0
Cn1nc(CC(=O)NCc2ccc(C(F)(F)F)cc2)c2ccccc2c1=O	4	/	-0.8	-3	0	-3.7	/	/	34	12
Cc1ccc(C(=O)Nc2ccccc2C(=O)NC(Cc2ccccc2)C(=O)O)cc1 (stereo not drawn)	-4	-16	-0.9	58	-23	-3.4	1.6	-16	2	-3
CCN1CCN(C(CNS(=O)(=O)c2ccccc2)c2ccccc2)CC1 (stereo not drawn)	41	9	0.3	-1	23	0.9	-0.3	1	-4	-1
O=C(O)CCCC(=O)NCCc1cccc(Cl)c1	-1	/	0.1	1	-8	0.7	/	/	-9	-1
COc1ccc([N+](=O)[O-])cc1N1C(=O)c2cccnc2C1=O	5	13	0.2	-31	-7	6.8	-0.4	8	2	9
Cn1c(Cn2nnc3ccccc32)nnc1SCC(=O)Nc1nccs1	17	4	-0.9	-17	13	-1.5	-2.8	9	0	-6
CCc1ccc(-c2nc(CS(=O)CC(=O)NCCN3CCCCCC3)c(C)o2)cc1 (stereo not drawn)	-33	2	0.7	100*	-9	3.8	5.4	4	-4	-4
CC(=O)Nc1cccc(NC(=O)c2csc(C)c2)c1	5	14	-2.7	-6	14	4.7	-1.1	6	1	4
CSCc1ccc(C(=O)NCCSc2ccc(Br)cc2)cc1	0	1	-0.2	-3	4	-1.9	0.1	-6	-2	6
CCC(C)c1c(O)nc(SCc2ccccc2)[nH]c1=O (stereo not drawn)	?	/	0.5	99*	-6	-0.3	/	/	-7	2
Cc1ccc2nc(C)c3c(c2c1)OC(C(C)(Cl)Br)C3 (stereo not drawn)	-4	-3	0.4	/	5	-4.7	2.7	-10	7	-12
CCC(NC(C)C)C(O)c1ccc(O)c(O)c1 (stereo not drawn)	/	11	0.1	92*	7	-3.8	8.7	10	-5	19
COc1cc(S(=O)(=O)N2CCCCC2)ccc1NC(=O)Cc1ccccc1	-13	-1	1.1	-2	3	-2.6	-4.0	12	-2	0
O=C(Nc1nnc(CC2=CCCCC2)s1)c1cccs1	-5	/	-0.5	0	-9	-1.5	/	/	3	-7
Cn1cccc1-c1cc(C(=O)N/N=C/c2ccc(Cl)cc2)[nH]n1	34	-20	-0.3	72	4	1.0	9.0	-21	6	8
O=C1CCOc2cc(OCc3ccccc3)ccc21	-1	/	-6.7	-5	-8	-2.5	/	/	-1	-3
O=C(N/N=C/c1ccsc1)c1c[nH]c2ccccc12	-5	9	-0.5	-1	8	0.2	-3.0	0	2	-3
CC(C(=O)N1CCCc2c1c(=O)oc1ccc(O)cc21)N1CCc2ccccc2C1 (stereo not drawn)	-8	/	0.3	12	21	-2.5	/	/	9	-2
CSc1ncc(-c2ccccc2)cn1	-27	9	-0.5	5	-15	1.9	1.6	9	-2	-7
O=C(COC(=O)c1ccco1)Nc1nc2ccccc2s1	-26	/	-0.1	5	-10	1.3	/	/	-7	0
CCC(C)Sc1ccc(-c2nc3cnccn3c2NC2CCCCC2)cc1 (stereo not drawn)	5	1	-0.1	/	25	1.2	50	0	15	-7
O=C(COC(=O)CCc1ccc(S(=O)(=O)N2CCOCC2)cc1)Nc1ncc(C(F)(F)F)cc1Cl	-9	/	0.8	-3	-4	0.7	/	/	-5	6
CCOc1ccc(-n2nc3c(SCCN4CCCC4)nnc(C)c3c2C)cc1	4	-1	0.6	2	43	1.3	13	-1	-2	-9
CCC(C)c1ccc(NC(=O)c2cccnc2)cc1 (stereo not drawn)	-3	/	-6.6	-2	8	3.9	/	/	12	3
Cc1cc(OCCNCCO)cc(C)c1Cl	-1	/	0.2	-15	-2	0.0	/	/	-2	38
O=C(COc1nsnc1N1CCOCC1)Nc1ccccc1Cl	-2	18	-1.2	-3	4	-1.2	0.9	12	-3	-25
Cc1cccnc1NC(=O)c1ccc(Cl)c(S(=O)(=O)N2CCCCCC2)c1	-1	-13	-0.6	1	15	-2.5	-6.2	-15	-4	-1
CN(C)CCCN(C(=O)c1ccc(C(=O)c2ccccc2)cc1)c1nc2cc3c(cc2s1)OCO3	-4	-80	0.4	-5	34	4.3	-20	-54	-6	27
Cc1ccc(-c2noc(CCCC(=O)NC3CCCCC3)n2)cc1	23	4	-0.3	3	7	6.9	4.1	0	-1	0
COc1ccc(OC)c(NC(=O)CN(Cc2ccccc2)S(C)(=O)=O)c1	28	0	1.7	-12	1	-1.4	2.5	4	1	0
C(=N\Nc1nc(-c2ccccn2)nc2ccccc12)/c1ccccc1	3	/	-2.0	-9	33	-4.2	/	/	92*	/
CCOC(=O)c1ccc(N2C(=O)c3n[nH]c(C)c3C2c2ccccn2)cc1 (stereo not drawn)	-7	-1	-6.9	8	-17	-2.1	2.6	-1	/	-21
C[C@H](NC(=O)CCCn1nnc2ccccc2c1=O)C(=O)O	-8	-2	-0.2	0	-15	-0.1	-6.4	10	-3	2
Cc1cccc(C(=O)NCC(=O)N2CCCC2)c1	2	23	2.0	-12	-8	2.1	3.1	18	/	6
COC(=O)[C@@H](Cc1c[nH]c2ccccc12)NC(=O)C1CCCN(S(=O)(=O)c2ccc(C)cc2)C1 (stereo partly drawn)	9	-18	-0.5	-5	-9	-2.5	-1.3	-6	-6	19
Cc1ccc(-n2c(NN)nc3ccccc3c2=O)c(C)c1	4	/	0.1	-16	-14	5.3	/	/	-5	1
CC1CCN(C(=O)C2c3ccccc3C(=O)N3CCc4ccccc4C23)CC1 (stereo not drawn)	-3	/	-1.1	0	8	-10	/	/	-6	3
CCN(C(=O)COC(=O)c1sccc1C)c1c(N)n(Cc2ccccc2)c(=O)[nH]c1=O	/	10	-0.4	-2	-8	0.1	1.0	3	1	-12
Cn1cnnc1SCc1ccc(C#N)cc1Cl	?	16	?	-21	3	-0.2	1.3	6	1	-3

(next part)
canonical_smiles	Calb FLC	rRNA inh HTS OD600	A1 inh	ALR inh	T cruzi inh	LANA-H2B inh	rRNA inh HTS RFP	rRNA inh HTS	Beta apoptosis	B2AR ag
Cc1ccc(C(C)C)c(OCC(=O)NCC(c2cccs2)N2CCOCC2)c1 (stereo not drawn)	0	-2	0.7	-3	21	0.6	2.8	7	4	-4
O=C(Nc1ccccc1N1CCCC1)c1ccccc1Cl	-2	-19	0.2	99*	8	3.7	-2.1	-20	-1	-5
CC1=C(C(=O)OC(C)C)C(C2CC=CCC2)NC(=O)N1 (stereo not drawn)	2	/	-0.5	2	-26	-4.5	/	/	-1	0
CCCCCn1c(N)c(-c2nc3ccccc3s2)c2c([N+](=O)[O-])nn(CC)c(=O)c21	-2	/	-0.2	1	31	-3.5	/	/	-6	23
Cn1cccc1C(=O)OCC(=O)Nc1cccc(S(=O)(=O)N2CCOCC2)c1	-19	2	-0.4	-4	-12	-1.3	0.4	-2	-8	0
O=C(NCCC1=CCCCC1)c1ccc2c(c1)N(Cc1ccccc1)C(=O)CS2	-19	/	0.2	-28	56*	7.6	/	/	4	5
N#C/C(=C\c1cc(O)c(O)c(O)c1)C(N)=O	11	-25	-0.2	99*	3	-5.1	0.6	-19	-7	-2
CCOc1cc(/C=C2\SC(=S)N(NS(=O)(=O)c3ccccc3)C2=O)ccc1O	88*	-1	-1.3	99*	-3	1.8	-3.8	-9	-1	-5

Some of the compounds tested; count on the stated rates, not on these rows.
